HIV Env fusion: blocks HIV Env-driven cell-cell fusion | HeLa-JRFL Env/CEM21 cell fusion, luciferase | inhibition, % at 12.3 µM | 360,000 compounds, 1.1% hits;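 active = mean replicate inhibition score of at least 50 and every replicate individually at or above 50; inconclusive = only one of the two criteria met; inactive = mean below 50 and not all replicates reaching 50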;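 also: 0% = plate neutral controls and 100% = maraviroc near 300 nM; one replicate is shown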
Numbers without * were called inactive; ? = inconclusive; [ ] = another dose, or the depositor's remark.

HIV Env fusion	SMILES
-2.0[16.7 µM]	CNC[C@@H]1OCCCC[C@@H](C)Oc2ccc(NC(=O)Nc3ccc(C(F)(F)F)cc3)cc2C(=O)N([C@H](C)CO)C[C@@H]1C
-13.4[16.7 µM]	O=C(C[C@H]1C[C@H]2c3cc(NC(=O)C4CCC4)ccc3O[C@H]2[C@@H](CO)O1)NCc1ccccn1
13.5[16.7 µM]	CN1[C@@H]2Cn3c(ccc(-c4ccc(F)cc4)c3=O)[C@H]1[C@@H](C(=O)NC1CCC1)[C@@H]2CO
3.3[16.7 µM]	CC(C)NC(=O)N(C)C[C@H]1OCCCC[C@@H](C)Oc2ccc(NC(=O)c3ccccc3)cc2C(=O)N([C@H](C)CO)C[C@H]1C
-45.9	CC1CCCN(C(=O)Nc2ccc([N+](=O)[O-])cc2)C1 (configuration not stated)
10.7[16.7 µM]	C[C@H](CO)N1C[C@H](C)[C@H](CN(C)C(=O)Nc2ccc(C(F)(F)F)cc2)Oc2ccc(NS(=O)(=O)c3cn(C)cn3)cc2CC1=O
11.6[16.7 µM]	O=C(NC1CCCCC1)N1CC(=O)N2[C@H](CO)[C@H](c3ccc(-c4cccnc4)cc3)[C@H]2C1
-15.1[16.7 µM]	CCC(=O)Nc1ccc2c(c1)OC[C@@H](C)N(CCc1ccccc1)C[C@H](C)[C@@H](OC)CN(C)C2=O
-9.5[16.7 µM]	CCCN(C)C[C@H]1Oc2cc(-c3ccccc3C)ccc2S(=O)(=O)N([C@@H](C)CO)C[C@H]1C
21.6[16.7 µM]	COc1ccc(CN2C[C@@H](C)[C@H](OC)CN(C)C(=O)c3cc(NC(=O)C4CC4)ccc3OC[C@H]2C)cc1
9.5	Cc1cc(O)cc(=O)n1-c1cc(F)c(F)c(F)c1
1.1[16.7 µM]	CCCNC(=O)N1C[C@@H](O)COC[C@@H]2O[C@@H](CC(=O)N3CCN(C)CC3)CC[C@H]21
-31.9	CCCCN1CC(COc2ccc(OC)cc2)OCCS1(=O)=O (configuration not stated)
15.0[16.7 µM]	Cc1noc(C)c1C(=O)N(C)C[C@H]1OCc2ccccc2-c2c(n(C)c3ccccc23)C(=O)N([C@H](C)CO)C[C@@H]1C
5.8[16.7 µM]	CO[C@@H]1CC[C@H]2CCOc3ccc(C#N)cc3C(=O)N(C)C[C@H](C)C(=O)N(C)C[C@H]1O2
0.0[16.7 µM]	C[C@@H]1CN([C@@H](C)CO)C(=O)c2cccc(NC(=O)c3nc4ccccc4s3)c2O[C@H]1CN(C)Cc1ccccc1
-30.6	CC(C)C[C@H](NC(=O)c1nccs1)C(=O)N1CCC[C@H]1C(=O)NCc1ccccc1
30.9	O=C(N[C@H](C(=O)N1CCC[C@H]1C(=O)NCCc1ccccc1Cl)c1ccccc1)c1ccc(Cl)c(Cl)c1
-22.8	O=C(NC1CCCC1)C1c2ccccc2OCC(=O)N1Cc1cccnc1 (configuration not stated)
31.4[16.7 µM]	Cc1noc(C)c1S(=O)(=O)Nc1ccc2c(c1)C(=O)N([C@@H](C)CO)C[C@@H](C)[C@@H](CN(C)Cc1ccc(C(F)(F)F)cc1)OCCCC[C@@H](C)O2

An excerpt of these results, with each value named.
CO[C@@H]1CC[C@H]2CCOc3ccc(C#N)cc3C(=O)N(C)C[C@H](C)C(=O)N(C)C[C@H]1O2
  HIV Env fusion: 5.8[16.7 µM]
C[C@@H]1CN([C@@H](C)CO)C(=O)c2cccc(NC(=O)c3nc4ccccc4s3)c2O[C@H]1CN(C)Cc1ccccc1
  HIV Env fusion: 0.0[16.7 µM]

Further compounds.
HIV Env fusion	SMILES
9.4[16.7 µM]	Cc1ccc(S(=O)(=O)NC[C@@H]2CC[C@H]3[C@H](CN3Cc3ccccc3C(=O)O)O2)cc1
2.2[16.7 µM]	Cc1ccccc1S(=O)(=O)Nc1ccc2c(c1)C(=O)N(C)[C@@H]1CC[C@@H](CC(=O)O)O[C@@H]1CO2
-12.2[16.7 µM]	COc1ccc2[nH]c3c(c2c1)CCN1C(=O)CC[C@H]31
-1.7[16.7 µM]	C[C@@H]1CN([C@H](C)CO)C(=O)c2cccc(NC(=O)c3cnccn3)c2O[C@@H]1CN(C)C(=O)NC1CCCCC1
20.3[16.7 µM]	C[C@H](CO)N1C[C@H](C)[C@H](CN(C)C(=O)[C@@H](Cc2ccccc2)N(C)C)OCc2ccccc2-c2ccccc2C1=O
-11.7	CCOC(=O)N[C@H](C(=O)N1CCC[C@H]1C(=O)NCc1ccccc1)C(C)C
12.5[16.7 µM]	COc1ccc(CN(C)C[C@H]2Oc3ccc(NS(=O)(=O)c4cccs4)cc3CC(=O)N([C@@H](C)CO)C[C@H]2C)cc1
9.1[16.7 µM]	COc1ccc(C#Cc2cnc3c(c2)C(=O)N([C@H](C)CO)C[C@H](C)[C@H](CN(C)C(=O)Nc2c(C)noc2C)O3)cc1OC
-9.3[16.7 µM]	CNC[C@H]1OCCCC[C@@H](C)Oc2ccc(NC(=O)c3ccccc3)cc2C(=O)N([C@H](C)CO)C[C@H]1C
18.9[16.7 µM]	C[C@@H]1CN([C@@H](C)CO)C(=O)Cc2cc(NC(=O)Nc3ccc4c(c3)OCO4)ccc2O[C@@H]1CN(C)S(=O)(=O)c1ccccc1
-2.2[16.7 µM]	O=C(C[C@H]1C[C@H]2c3cc(NS(=O)(=O)c4ccc(F)cc4)ccc3O[C@H]2[C@@H](CO)O1)NCCN1CCCCC1
-62.5	COc1cc2c(c(OC)c1OC)CC(c1ccccc1)=C(c1ccccc1)CC2NC(=O)C(F)(F)F (configuration not stated)
19.7[16.7 µM]	CN(C)c1ccc2c(c1)[C@H]1C[C@H](CC(=O)NCc3ccc4c(c3)OCO4)O[C@H](CO)[C@H]1O2
-8.5[16.7 µM]	CO[C@@H]1CN(C)C(=O)c2cc(NC(=O)Nc3cccc(F)c3)ccc2OC[C@H](C)N(C(=O)Nc2c(C)noc2C)C[C@@H]1C
-53.5	COC(=O)[C@@H](N[C@H](/C=C/c1ccccc1)[C@@H](O)Cc1ccccc1)c1ccccc1
7.4[16.7 µM]	COC(=O)C[C@H]1CC[C@H]2[C@@H](COc3ccc(NS(=O)(=O)c4ccc(F)cc4)cc3C(=O)N2C)O1
-9.0	COc1ccc(N2C(=O)c3[nH]nc(-c4ccccc4)c3C2c2ccc(F)cc2)cc1 (configuration not stated)
1.7[16.7 µM]	COc1ccc(NC(=O)N(C)C[C@@H]2Oc3ccc(N(C)C)cc3CC(=O)N([C@H](C)CO)C[C@H]2C)cc1
8.3[16.7 µM]	O=C([C@H]1[C@H](CO)[C@H]2Cn3c(cccc3=O)[C@H]2N1Cc1ccccc1Cl)N1CCCCC1
4.9[16.7 µM]	CO[C@H]1CN(C)C(=O)c2cc(NC(=O)Nc3cc(F)ccc3F)ccc2OC[C@@H](C)NC[C@@H]1C

More entries follow.
HIV Env fusion	SMILES
-15.4[16.7 µM]	CS(=O)(=O)N1C[C@@H](O)COC[C@H]2O[C@@H](CC(=O)NCc3ccccc3)CC[C@@H]21
23.7	CCOC(=O)C1=C(Nc2ccc(Br)cc2)C(=O)N(CC)C1
3.3[16.7 µM]	CC(C)NC(=O)Nc1ccc2c(c1)C(=O)N([C@@H](C)CO)C[C@@H](C)[C@@H](CN(C)CC1CCCCC1)OCCCC[C@@H](C)O2
-2.5[16.7 µM]	CO[C@H]1CC[C@@H]2CCN(C)C(=O)CC3(CCCCC3)CN(C)C(=O)c3cc(C#N)ccc3OC[C@@H]1O2
8.7	COC(=O)c1cc2c(c3c4ccccc4n(S(=O)(=O)c4ccc(C)cc4)c13)C(=O)N(Cc1ccccc1)C2
7.0[16.7 µM]	Cc1ccccc1-c1cnc2c(c1)C(=O)N([C@@H](C)CO)C[C@H](C)[C@H](CN(C)Cc1cncnc1)O2
17.2[16.7 µM]	CO[C@@H]1CN(C)C(=O)c2cc(NC(C)=O)ccc2OC[C@@H](C)N(S(C)(=O)=O)C[C@H]1C
-18.4[16.7 µM]	O=C(C[C@H]1C[C@@H]2c3cc(NC(=O)C4CCOCC4)ccc3O[C@@H]2[C@H](CO)O1)NCc1cc(F)ccc1F
-5.2[16.7 µM]	CCCNC(=O)Nc1ccc2c(c1)C(=O)N(C)C[C@@H](OC)[C@@H](C)CN(C(=O)c1ccccc1F)[C@@H](C)CO2
-17.1[16.7 µM]	C[C@H](CO)N1C[C@H](C)[C@@H](CN(C)Cc2cccc(C(=O)O)c2)OCc2ccccc2-c2ccccc2C1=O
-3.8	COc1cccc(CNC(=O)[C@H]2CCCN2C(=O)[C@H]2CCCN2C(=O)C2CCCCC2)c1
2.6[16.7 µM]	C[C@@H](NC(=O)C[C@@H]1C[C@H]2c3cc(NC(=O)c4cccnc4)ccc3O[C@H]2[C@H](CO)O1)c1ccccc1
7.8[16.7 µM]	C[C@H]1CN([C@@H](C)CO)C(=O)CCCn2nncc2CO[C@H]1CN(C)C
9.3[16.7 µM]	CN(C)c1ccc2c(c1)[C@@H]1C[C@@H](CC(=O)NC3CCCCC3)O[C@@H](CO)[C@@H]1O2
-21.1[16.7 µM]	CS(=O)(=O)Nc1ccc2c(c1)[C@@H]1C[C@@H](CC(=O)NCCc3ccccc3)O[C@H](CO)[C@@H]1O2
34.9[16.7 µM]	C[C@H]1CCCCO[C@H](CN(C)C(=O)CCC(F)(F)F)[C@@H](C)CN([C@@H](C)CO)C(=O)c2cc(NS(=O)(=O)c3ccc(Cl)cc3)ccc2O1
-12.3[16.7 µM]	O=C(C[C@@H]1C[C@H]2c3cc(NC(=O)Nc4ccccc4)ccc3O[C@H]2[C@H](CO)O1)NCCN1CCCCC1
-27.9[16.7 µM]	CCNC(=O)C[C@@H]1CC[C@H]2[C@@H](COC[C@@H](O)CN2C(=O)Nc2ccc(C(F)(F)F)cc2)O1
-10.2[16.7 µM]	C[C@H](CO)N1C[C@H](C)[C@H](CN(C)S(=O)(=O)c2ccccc2)Oc2ncc(C#CC(C)(C)O)cc2C1=O
16.9[16.7 µM]	Cc1ccc(S(=O)(=O)N(C)C[C@@H]2Oc3c(NS(=O)(=O)c4cn(C)cn4)cccc3C(=O)N([C@@H](C)CO)C[C@@H]2C)cc1

In another format: 4 of the compounds above.
> CS(=O)(=O)N1C[C@@H](O)COC[C@H]2O[C@@H](CC(=O)NCc3ccccc3)CC[C@@H]21
  HIV Env fusion = -15.4[16.7 µM]
> CN(C)c1ccc2c(c1)[C@@H]1C[C@@H](CC(=O)NC3CCCCC3)O[C@@H](CO)[C@@H]1O2
  HIV Env fusion = 9.3[16.7 µM]
> C[C@@H](NC(=O)C[C@@H]1C[C@H]2c3cc(NC(=O)c4cccnc4)ccc3O[C@H]2[C@H](CO)O1)c1ccccc1
  HIV Env fusion = 2.6[16.7 µM]
> COc1cccc(CNC(=O)[C@H]2CCCN2C(=O)[C@H]2CCCN2C(=O)C2CCCCC2)c1
  HIV Env fusion = -3.8

Later entries
HIV Env fusion	SMILES
5.7	CCCc1nc2ccc(C(=O)OC)cn2c1Cc1ccccc1OC
-8.0[16.7 µM]	CO[C@H]1CC[C@H]2CCOc3c(C#N)cccc3C(=O)N(C)C[C@@H](OC)[C@H](C)C(=O)N(C)C[C@@H]1O2
25.5[16.7 µM]	C[C@H](CO)N1C[C@H](C)[C@H](CN(C)C(=O)NC2CCCCC2)OCc2ccccc2-c2c(n(C)c3ccccc23)C1=O
10.0[16.7 µM]	C[C@@H]1CN([C@@H](C)CO)C(=O)c2cc(NC(=O)c3ccncc3)ccc2O[C@@H](C)CCCCO[C@@H]1CN(C)C(=O)c1ccncc1
8.8[16.7 µM]	CO[C@@H]1CN(C)C(=O)c2ccc(NS(C)(=O)=O)cc2OC[C@@H](C)N(C(=O)C2CCCC2)C[C@@H]1C
9.2	O=C(N[C@H](Cc1ccccc1)C(=O)NC1CCCCC1)[C@H]1O[C@@H](n2ccc(=O)[nH]c2=O)[C@H](O)[C@@H]1O
1.1[16.7 µM]	CO[C@H]1CC[C@@H]2CCOc3ccc(C#N)cc3C(=O)N(C)C[C@H](OC)[C@H](C)C(=O)N(C)C[C@@H]1O2
8.5[16.7 µM]	C[C@@H]1CCCCO[C@@H](CN(C)C(=O)Cc2ccccc2)[C@H](C)CN([C@H](C)CO)C(=O)c2cc(N(C)C)ccc2O1
-7.1	O=C(C(=O)N1CCC(CNS(=O)(=O)c2cccc(C(F)(F)F)c2)CC1)c1cc2ccccc2o1
9.1[16.7 µM]	O=C(C[C@H]1CC[C@@H]2[C@H](COC[C@@H](O)CN2Cc2cccc(C(F)(F)F)c2)O1)NCCc1ccncc1
41.8	C=CCN=C1NC(c2ccccc2C(F)(F)F)C(C(=O)OC)=C(C)N1Cc1ccccc1C(F)(F)F (configuration not stated)
8.3[16.7 µM]	COc1ccccc1NC(=O)N[C@@H]1CC[C@H](CCNS(=O)(=O)c2ccccc2)O[C@H]1CO
29.0[16.7 µM]	O=C1N[C@H](Cc2ccccc2)COCc2cn(nn2)CC[C@@H]1Cc1ccccc1
20.3[16.7 µM]	CO[C@@H]1CC[C@H]2CCOc3ccc(C#N)cc3C(=O)N(C)CCCC(=O)N(C)C[C@@H]1O2
?	COC(=O)CC#C[C@@H](C)[C@H](NS(=O)(=O)c1ccc(C)cc1)C(C)(C)C
2.9[16.7 µM]	CC(C)[C@@H](C)NC(=O)N(C)C[C@@H]1OCc2ccccc2-c2ccccc2C(=O)N([C@@H](C)CO)C[C@H]1C
0.8[16.7 µM]	CO[C@@H]1CN(C)C(=O)c2cc(NC(=O)Cc3ccccc3)ccc2OC[C@H](C)NC[C@H]1C
-11.5[16.7 µM]	O=C([C@H]1[C@H](CO)[C@H]2Cn3c(ccc(-c4ccncc4)c3=O)[C@H]2N1Cc1cocn1)N1CCCCC1
-8.6	O=C(N[C@H](C(=O)N1CCC[C@H]1C(=O)NCc1ccccc1)C1CCCCC1)c1ccc(Cl)c(Cl)c1
-2.8[16.7 µM]	CN(C)CCCNC(=O)[C@H]1[C@H](CO)[C@H]2Cn3c(ccc(-c4cccc(F)c4)c3=O)[C@@H]1N2

Screening results (PubChem BioAssay)

Some of the compounds tested; count on the stated rates, not on these rows.
